High-throughput results: PubChem, National Center for Advancing Translational Sciences (NCATS)
miR-21 FLuc: miR-21 reporter, rising signal | HeLa miR-21 FLuc reporter, luciferase, 48 h | Potency, µM (titrated, usually from 38.3 µM), without a hit: at the top dose reporter change, positive = more light | 340,000 tested, under 10 active | AID 2288; active = well fitted rising curve with a large enough effect; inconclusive = small, poorly fitted or top-dose-only effect; inactive = no such curve, though single readings can be large or run the other way;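 also: % of control where 0% means no effect; miR-21 action dims this reporter so a rising signal means less miR-21 action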
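HeLa cells stably expressing CMV-driven firefly luciferase with a downstream miR-21 binding sequence, endogenously expressing miR-21, were treated with titrations (up to about 40uM final) for 48 hours at 37 degree Celsius. Luciferase luminescence was read after lysis.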
Rango complex inh: inhibitors of Rango-importin beta complex formation | hit rate 0.031% among 340,000 | Potency, µM (titrated, usually from 92.2 µM), inactives show top-dose inhibition of complex formation | AID 540263 | Rango CFP/YFP FRET sensor + importin beta, 45 min | Q14974; active = rising FRET ratio curve, often small or poorly fitted; inconclusive = mostly compound fluorescence or quenching in the first reads; inactive = flat curves in all reads;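 also: potency is read from the fitted curve at half-maximal effect; 0% = DMSO wells and 100% = buffer wells lacking importin beta; nearly all actives have a fitted effect of over 15% in size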
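FRET biosensor (snurportin 1 IBB flanked by EYFP and cerulean), 50 nM, with compound 5 min, then 0.125 microM importin beta in PBS, 1 mM DTT, 0.02% Tween-20, 0.1% BSA. CFP/YFP ratio read after 45 min at room temperature; pre-read flags interference.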
GLA inh pH 4.5: blocks human alpha-galactosidase A at pH 4.5; P06280; purified enzyme, 4-MU-alpha-Gal fluorescence, pH 4.5; activity change, negative = inhibition, % at 105 µM; 230,000 tested, under 10 active; inconclusive = small, poorly fitted or top-dose-only inhibition, or a rising curve; inactive = flat fitted curve, though single readings scatter; no compound was filed as active;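 also: 0% = full activity with enzyme and -100% = basal without enzyme; dose as in the result columns while the protocol names 77 µM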
Target sequence (P06280 whole entry, looked up): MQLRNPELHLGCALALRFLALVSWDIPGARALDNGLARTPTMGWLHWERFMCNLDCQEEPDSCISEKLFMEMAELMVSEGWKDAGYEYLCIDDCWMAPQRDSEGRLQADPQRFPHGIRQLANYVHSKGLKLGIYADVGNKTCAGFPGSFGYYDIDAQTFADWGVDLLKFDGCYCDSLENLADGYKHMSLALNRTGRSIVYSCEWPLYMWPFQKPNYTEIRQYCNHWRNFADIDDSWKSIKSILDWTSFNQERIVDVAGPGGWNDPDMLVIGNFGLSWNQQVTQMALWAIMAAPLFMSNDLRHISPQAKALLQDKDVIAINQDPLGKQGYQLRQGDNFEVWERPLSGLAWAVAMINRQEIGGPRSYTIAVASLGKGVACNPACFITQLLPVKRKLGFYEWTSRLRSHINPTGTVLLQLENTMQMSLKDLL
Rango release inh: inhibitors of RanGTP-induced Rango-importin beta complex dissociation; O95149+P62826; Biochemical FRET Rango-importin beta, RanGTP-induced dissociation; Potency, µM (highest dose often 46.1 µM), without a hit: top-dose activity change, negative = inhibition; hit rate 0.071% among 340,000; AID 540253; active means falling FRET ratio curve, often poorly fitted, with flat reads before Ran was added; inconclusive means other falling curves, or compound fluorescence or quenching; inactive means flat or rising ratio curve;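 also: potency is read from the fitted curve at half-maximal effect; % of control where 0% means no effect; nearly all actives have a fitted effect of over 45% in size; -100% = wells without RanGTP and RCC1; the record marks most hits as doubtful in a second field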
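FRET read at 45 min, room temperature: inhibitors block the CFP/YFP signal rise when RanGTP (0.6 uM Ran, 2 mM GTP, 0.2 uM RCC1) frees Rango (0.1 uM) from importin beta (0.25 uM). Pre-read after 5 min compound exposure flags interference.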
An asterisk follows results filed as active; ? = inconclusive; · = not tested or not shown. An excerpt, so the mix of outcomes need not match the whole.

miR-21 FLuc	Rango release inh	Rango complex inh	Compound	GLA inh pH 4.5
-3.7%	0.4%	2.9%	O=C(CN1CCN(c2ccccn2)CC1)Nc1ccc(OC(F)(F)F)cc1	·
7.7%	1.6%	0.1%	CC(=O)Nc1cc(-c2nn(C)c(=O)c3ccccc23)ccc1N1CCOCC1	-2.6
-2.5%	-0.2%	-0.7%	COc1ccc(C(=O)c2ccc(-c3ccc(OC)cc3)nc2)cc1	·
·	-9.4%	1.0%	COc1ccc(Cc2nnc(SCC(=O)Nc3cc(Cl)ccc3C)[nH]c2=O)cc1	·
10.9%	13.9%	-2.4%	CCOC(=O)c1c(C)[nH]c(C(=O)N2CCN(CC)CC2)c1C	·
-64.6%	12.3%	-3.6%	CC1Oc2ccccc2N(CC(=O)NCc2ccccc2)C1=O (stereo unspecified)	11.0
18.3%	-15.2%	0.8%	O=C(C1CCCN(c2ncnc3c2nc2n3CCCCC2)C1)N1CCN(c2cccc(Cl)c2)CC1 (stereo unspecified)	·
0.2%	-16.7%	-2.6%	Cc1cc(N2C(=O)C3CC=CC(C)C3C2=O)no1 (stereo unspecified)	-2.2
27.0%	13.4%	0.9%	COC(=O)NC(=S)Nc1ccc(Oc2ccc(Cl)cc2Cl)c(Cl)c1	-5.8
·	5.5%	-1.8%	CCCCCCCCNCCS(=O)(=O)NCc1ccccc1	·
16.3%	6.3%	2.7%	Cc1ccc(NC(=O)c2sc3nc(C)nc(N4CCN(c5ccccn5)CC4)c3c2C)c(C)c1	-4.7
-8.2%	-8.0%	-0.8%	FC(F)(F)c1ccc(-c2csc(-c3ccno3)n2)cc1	-14.4
10.4%	-9.9%	-2.0%	CSc1ccc(-c2nc(CSCC(=O)NCCCN3CCOCC3)c(C)o2)cc1	1.6
2.3%	?	-2.3%	CS(=O)(=O)c1ccc(C(=O)NCC2(N3CCCCC3)CCCCC2)cc1	-6.6
4.3%	-14.8%	?	CCOC(=O)N1CCN(CC(O)COc2c(C)cccc2C)CC1 (stereo unspecified)	0.4
·	-4.2%	1.2%	COc1cccc(CCC(=O)Nc2cc3c(cc2C(=O)O)OCCCO3)c1OC	·
-4.7%	6.9%	-2.8%	O=C(c1ccco1)N1CCN(C23CC4CC(CC(C4)C2)C3)CC1	·
3.9%	13.5%	-0.9%	O=C(CSc1ccc2c(c1)OCCO2)Nc1cccnc1Cl	2.5
10.0%	-10.0%	0.8%	COc1ccc(NC(=O)C(=O)c2cn(CC(=O)N3CCCC3)c3ccccc23)cc1	·
-27.0%	-11.7%	-4.8%	Cc1nc(N2CCC3(CC2)OCCO3)c2nnn(Cc3ccccc3F)c2n1	-3.5

6 compounds already listed, sorted by SMILES length, highest first:
miR-21 FLuc	Rango release inh	Rango complex inh	Compound	GLA inh pH 4.5
16.3%	6.3%	2.7%	Cc1ccc(NC(=O)c2sc3nc(C)nc(N4CCN(c5ccccn5)CC4)c3c2C)c(C)c1	-4.7
10.0%	-10.0%	0.8%	COc1ccc(NC(=O)C(=O)c2cn(CC(=O)N3CCCC3)c3ccccc23)cc1	·
7.7%	1.6%	0.1%	CC(=O)Nc1cc(-c2nn(C)c(=O)c3ccccc23)ccc1N1CCOCC1	-2.6
-2.5%	-0.2%	-0.7%	COc1ccc(C(=O)c2ccc(-c3ccc(OC)cc3)nc2)cc1	·
-8.2%	-8.0%	-0.8%	FC(F)(F)c1ccc(-c2csc(-c3ccno3)n2)cc1	-14.4
3.9%	13.5%	-0.9%	O=C(CSc1ccc2c(c1)OCCO2)Nc1cccnc1Cl	2.5

(cont.)
miR-21 FLuc	Rango release inh	Rango complex inh	Compound	GLA inh pH 4.5
-0.7%	-8.9%	1.5%	CCOC(=O)CSc1n[nH]c(NC(=O)c2ccccc2)n1	-7.1
-2.3%	-5.0%	-2.5%	CC(C)CCC(C)N=Cc1c(O)n(Cc2ccccc2)c(=O)c2ccccc12 (stereo unspecified)	-4.5
21.4%	6.3%	-0.5%	O=[N+]([O-])c1ccc(N=Cc2ccc(Br)c([N+](=O)[O-])c2)cc1	-19.6
7.8%	-9.4%	-2.1%	COCCn1cnnc1SCC(=O)Nc1cc(OC)c([N+](=O)[O-])cc1C	7.0
-5.0%	16.2%	-2.0%	Cc1ccc2oc(=O)c3cc(C(=O)NCCCN4CC(C)CC(C)C4)sc3c2c1 (stereo unspecified)	·
24.8%	0.7%	1.2%	COc1cc(C2=NOC(C(=O)NCc3ccc(F)cc3)C2)cc(OC)c1OC (stereo unspecified)	-6.1
-0.1%	-11.1%	-6.4%	O=C(O)C1CCN(S(=O)(=O)c2cccc3cccnc23)CC1	·
-27.3%	-18.9%	-5.6%	C=CCn1c(=NC(=O)c2ccco2)sc2cc(C(=O)OC)ccc21	6.5
19.6%	11.7%	1.3%	Clc1ccc(C[n+]2cc(-c3ccccc3)n3c2CCC3)cc1Cl	5.3
0.7%	-18.7%	1.8%	O=C1CCCC2=C1C(c1ccncc1)n1c(nc3ccccc31)N2 (stereo unspecified)	12.7
5.0%	-2.9%	-3.4%	Cc1ccccc1C(=O)c1cccn1CC(=O)NC(C)c1ccc2c(c1)OCCO2 (stereo unspecified)	-0.2
·	12.4%	0.0%	CN1CCC(N(C)C(=O)c2ccc(Cl)c(S(=O)(=O)N3CCOCC3)c2)CC1	·
-3.4%	5.7%	2.2%	O=C(Cc1cccs1)N=Nc1c(O)[nH]c2ccc(Br)cc12	-3.9
-38.0%	12.1%	-1.8%	O=C(CSc1ccccn1)Nc1ccc2c(c1)OCO2	1.7
-0.4%	-3.9%	4.5%	O=S(=O)(c1ccc2c(c1)OCCO2)N1CCNCC1	·
0.8%	3.4%	-0.1%	O=C(c1ccc(F)cc1Cl)N1CCN(CCc2ccccc2)CC1	·
5.5%	18.7%	0.0%	COc1ccc2[nH]c(=O)c(CN(C(=O)c3cccnc3)c3ccc(C)c(C)c3)cc2c1	-5.8
-13.7%	6.2%	-1.5%	C=CCn1c(=N)n(CC(=O)c2ccccc2)c2ccccc21	·
-2.8%	1.2%	1.0%	COc1cccc(CNC(=O)CN2C(=O)COc3ccc(S(=O)(=O)N4CCCC4)cc32)c1	·
14.9%	2.5%	2.6%	COc1ccc(-c2csc(NC(=S)NC(=O)/C=C/c3ccco3)n2)cc1Br	-1.6
-1.6%	-0.6%	2.4%	O=C1c2ccccc2C(=O)N1CCCn1c(=O)oc2ccccc21	-4.8
-6.0%	-13.2%	2.8%	Cc1ccccc1C(=O)Nc1ccc(S(=O)(=O)N2CCCC2)cc1	·
-4.5%	4.5%	2.9%	O=C(NCc1ccc(F)cc1)NC(=O)c1ccc(Cl)cc1	·
·	-0.3%	-0.3%	CCc1ccc(C(=O)COC(=O)C2CCN(c3ccc(C(F)(F)F)cn3)CC2)cc1	·
6.4%	0.1%	-2.5%	Cc1sc2nc(C3CC3)nc(N3CCN(C(=O)c4ccc(Cl)cc4)CC3)c2c1C	·
-0.4%	13.9%	-2.2%	CNS(=O)(=O)/C=C/c1ccccc1	12.2
·	-25.1%	3.0%	Cc1c(NC(=O)C(C)OC(=O)c2cccnc2Cl)c(=O)n(-c2ccccc2)n1C (stereo unspecified)	·
-0.1%	-16.3%	-16.7%	O=C1CSC(c2ccc([N+](=O)[O-])cc2)N1c1ccccc1F (stereo unspecified)	·
-18.5%	11.5%	1.1%	CCCCCCCC(=O)Oc1ccc(C(=O)Nc2cc(C)on2)cc1	·
-0.8%	19.8%	-3.1%	CCC(C)[C@@H](C(=O)NCC1CCC(C(=O)O)CC1)n1nnc2ccccc2c1=O (stereo partly specified)	0.3
8.9%	0.2%	-4.7%	CCc1ccc(NC(=S)N(Cc2cccnc2)Cc2ccco2)cc1	-2.3
-11.3%	13.7%	-2.6%	COc1ccc([N+](=O)[O-])cc1C(=O)Nc1ccc(OCC(=O)N2CCOCC2)cc1	-6.3
-7.8%	6.2%	1.5%	CC1CC(=O)Nc2ccccc2N1C(=O)Nc1ccc(F)cc1F (stereo unspecified)	-2.0
·	-9.1%	5.7%	COc1ccc(OC)c(CN2CCN(C(=O)CCNC(=O)c3ccc(Br)cc3)CC2)c1	·
-6.6%	1.4%	2.3%	NC(=O)c1ccccc1OCC(=O)c1ccc(Cl)cc1	3.7
-7.0%	16.0%	1.3%	CN(C)Cc1cc(CCNC(=O)c2ccc(Cl)cc2)ccc1O	5.5
-21.0%	6.4%	2.7%	O=C(Nc1nc2ccccc2[nH]1)c1cccc(S(=O)(=O)N2CCOCC2)c1	-3.4
-0.2%	1.3%	-0.9%	CCS(=O)(=O)c1ccc2c(c1)N(S(C)(=O)=O)CC(C(=O)NCc1ccccc1OC)O2 (stereo unspecified)	-1.9
·	16.5%	4.4%	CC(C)NCC(O)COc1ccc(COCCOC(C)C)cc1 (stereo unspecified)	6.5
-70.1%	0.8%	-0.8%	Cc1cc(SCCOc2ccccc2)nc(N)n1	6.8
-27.5%	?	?	O=c1c2ccccc2[nH]c2ccccc12	?
·	0.2%	-0.1%	O=C(CSc1nc2ccccc2c(=O)n1CCCN1CCOCC1)Nc1ccc(Br)cc1	·
-0.9%	21.4%	4.3%	Cc1cc(=O)n2nc(N3CCC(C(=O)NC(C)c4ccccc4)CC3)sc2n1 (stereo unspecified)	8.8
-36.3%	-6.2%	-1.5%	COc1cccc(/C=N/n2c(N)nc3ccccc32)c1OC	-7.1
-3.8%	5.1%	-0.3%	Cc1cccc(C2Nc3ccccc3C(=O)N2NC(=O)c2ccc([N+](=O)[O-])cc2)n1 (stereo unspecified)	-5.2
-8.3%	14.9%	6.2%	COC(=O)c1c(C)oc(C)c1S(=O)(=O)Nc1ccc(C(C)C)cc1	-14.4
-0.3%	-9.2%	-1.2%	CC1CCCC(NC2CCCCNC2=O)C1 (stereo unspecified)	-4.5
-0.1%	-12.9%	-0.2%	O=C(CN1C(=O)COc2ccccc21)N(Cc1cccnc1)Cc1ccccc1F	-2.8
·	15.6%	-1.5%	CCOC(=O)C1=C(COC(=O)[C@@H](NC(=O)c2cccc(C)c2)C(C)C)NC(=O)NC1C (stereo partly specified)	·
3.6%	0.7%	-1.4%	Cc1cccc(C)c1OCC(O)CN1CCN(c2ccccn2)CC1 (stereo unspecified)	2.2
-30.2%	-2.5%	-3.7%	COc1ccc(C2CC(c3ccccc3)=NN2C(=O)CSc2ncn[nH]2)cc1 (stereo unspecified)	-8.2
-0.8%	?	6.0%	Oc1ccc(/C=N/n2c(-c3ccccc3)n[nH]c2=S)cc1Br	·
-12.7%	23.8%	0.1%	CC(=O)n1nc2nc(C)cc(C)c2c1N	3.6
-22.3%	-8.0%	0.1%	COc1ccccc1OCC(=O)NCc1cccs1	-3.0
-1.7%	-0.7%	1.1%	CC(C)C(NC(=O)C1CCCCC1)C(=O)NC1=NCCS1 (stereo unspecified)	5.7
·	2.4%	?	COc1ccccc1NC(=O)C(=O)NCCCN1CCCC1=O	·
-0.8%	-0.1%	-2.0%	CCOc1ccc(NC(=O)C(=O)NCCN2CCN(C(=O)c3ccc(C)cc3)CC2)cc1	·
?	2.7%	7.9%	O=C(Nc1cccc(S(=O)(=O)Nc2ccc(Cl)cc2)c1)c1ccc(Cl)nc1	-10.0
-15.9%	-15.7%	1.7%	CCOc1ccc(NC(=O)c2cccnc2C(=O)O)cc1	-15.8
-44.0%	-5.7%	-4.4%	CCOc1ccc(-c2c(=O)n(OCC)c3ccccc3[n+]2[O-])cc1	·
-0.7%	-10.2%	1.7%	N#CCC(=O)Nc1ccc(C(=O)NCc2ccccn2)cc1	-1.9
